Bioassay records as filed in PubChem BioAssay.
FPRL1 ligand: ligands of human FPRL1, also counter-screen for FPR ligands; hit rate 0.3% among 24,000; P25090; FPRL1-expressing cells, fluorescent ligand binding inhibition, flow cytometry; inhibition, %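 (tested at 6.7 µM)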;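 note: 0% = buffer alone and 100% = receptor blocker peptide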
Target sequence (P25090 whole entry, looked up): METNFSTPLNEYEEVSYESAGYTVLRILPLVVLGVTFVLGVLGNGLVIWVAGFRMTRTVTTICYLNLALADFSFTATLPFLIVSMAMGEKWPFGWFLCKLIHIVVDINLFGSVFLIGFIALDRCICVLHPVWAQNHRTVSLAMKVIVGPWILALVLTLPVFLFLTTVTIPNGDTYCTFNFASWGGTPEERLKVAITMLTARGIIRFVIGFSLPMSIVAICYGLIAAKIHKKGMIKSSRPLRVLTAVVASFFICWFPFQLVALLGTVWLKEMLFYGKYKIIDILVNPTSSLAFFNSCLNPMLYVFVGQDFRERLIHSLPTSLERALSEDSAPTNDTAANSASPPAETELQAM
VCAM-1 imaging: suppression of endothelial VCAM-1 upregulation – imaging, high-content imaging, pooled HUVEC, TNFa stimulus (AID 456); HUVEC TNFa-induced VCAM-1 surface expression, immunofluorescence imaging; numbers were filed only for top-ranked candidate wells; inhibition, % at 5 µM, or IC50 in µM where a hit was titrated; hit rate 0.2% among 10,000;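 active = top tenth filtered wells with inhibition above zero that passed visual or statistical confirmation; inactive = the rest, including hits rejected on review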;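 note: 0% = stimulated vehicle wells and 100% = unstimulated cells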
VCAM-1 inhibition: inhibitors of TNFa-induced VCAM-1 surface display, cell-based, plate reader, pooled HUVEC, TNFa stimulus (AID 454) | HUVEC TNFa-induced VCAM-1 surface immunofluorescence, plate reader; numbers were filed only for top-ranked candidate wells | inhibition, % at 5 µM | hit rate 0.2% among 10,000;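 active = compound among top-ranked inhibitors of TNF-induced VCAM-1 adhesion protein staining, with the hit upheld by image or statistical review; inactive = the rest, including hits rejected on review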;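 note: 0% = TNFa with vehicle and 100% = cells without TNFa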
FPR binder: human FPR ligand, with FPRL1 counter-screen; inhibition, %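 (tested at 6.7 µM)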; FPR-expressing cells, fluorescent ligand binding, flow cytometry; hit rate 0.74% among 24,000; P21462;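 note: 0% = buffer wells and 100% = receptor blocker peptide wells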
Target sequence (P21462 whole entry, looked up): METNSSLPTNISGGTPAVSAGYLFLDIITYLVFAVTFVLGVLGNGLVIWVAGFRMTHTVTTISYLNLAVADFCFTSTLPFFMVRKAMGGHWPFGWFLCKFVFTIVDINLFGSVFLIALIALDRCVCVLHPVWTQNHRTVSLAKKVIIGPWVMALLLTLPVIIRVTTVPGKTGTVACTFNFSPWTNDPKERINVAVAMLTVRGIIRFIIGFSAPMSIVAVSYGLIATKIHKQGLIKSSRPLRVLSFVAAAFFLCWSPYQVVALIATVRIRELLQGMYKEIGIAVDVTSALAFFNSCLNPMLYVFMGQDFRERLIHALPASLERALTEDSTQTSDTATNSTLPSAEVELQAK
VCAM-1 augmentation: boosters of cytokine-driven VCAM-1 levels – imaging, high-content imaging, pooled HUVEC, TNFa stimulus (AID 457); Pooled HUVEC, TNFa-induced VCAM-1 immunofluorescence imaging; hits of this screen are not shown here; calls only; hit rate 0.2% among 10,000;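 active = a top-ranked rise in VCAM-1 staining upheld on image or statistical review; inactive = the rest, including candidates rejected on review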;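 note: compounds tested at 5 µM in the well; cells exposed to compound for 24 hours before fixing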
* = called active by the depositor; i = inactive; . = not tested or not shown.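 Rule for the calls, unless noted: active = mean above 30%; inconclusive = self-fluorescent; inactive = the rest.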

Every second line gives: FPRL1 ligand | VCAM-1 imaging | VCAM-1 inhibition | FPR binder | VCAM-1 augmentation
Cc1cc(C)n(CCc2nc3c4ccccc4nc(SCc4ccc(C#N)cc4)n3n2)n1
  -3 | . | . | -6 | .
CCOc1ccc(NC(=O)c2nccnc2CO)cc1
  7 | . | . | -8 | .
Cc1ccc2nc(NC(=O)CCNS(=O)(=O)c3cccs3)sc2c1
  5 | . | . | 9 | .
CC1=CCC2C(=O)N(c3nc(C)cc(C)n3)C(=O)C2C1 (stereo unspecified)
  -6 | i | i | 2 | i
CCOc1ccc(N2C(=O)c3cccnc3C2=O)cc1
  14 | . | . | 3 | .
CCOC(=O)c1sc(NC(=O)CSc2ncn(-c3ccccc3)n2)nc1C
  -1 | i | i | 4 | i
CCOc1ccc(OCC)c(NC(=O)CN(c2ccc(C)cc2)S(=O)(=O)c2c(C)noc2C)c1
  2 | . | . | -5 | .
CCCc1[nH]nc2c1C(c1cccc(OC(=O)c3ccco3)c1)C(C#N)=C(N)O2 (stereo unspecified)
  3 | i | i | -5 | i
CC(C)CCn1c(=O)c2ccccc2n2c(CN(C)Cc3ccccc3)nnc12
  0 | i | i | 4 | i
CCSc1nnc(NC(=O)c2ccccn2)s1
  -3 | i | i | 4 | i
O=C(NCC12CC3CC(CC(C3)C1)C2)c1cc2n(n1)C(C(F)(F)F)CC(c1ccco1)N2 (stereo unspecified)
  -12 | . | . | 7 | .
CCOC(=O)N1CCN(C(=O)CSCC(=O)Nc2nc(-c3ccc(OC)cc3)cs2)CC1
  0 | i | i | 1 | i
CCOc1cc(C(=O)Nc2ccc(S(=O)(=O)Nc3cc(C)on3)cc2)cc(OCC)c1OCC
  -4 | . | . | -5 | .
CCn1c(=O)cc(OCC(=O)NCCCN2CCN(c3cccc(Cl)c3)CC2)c2ccccc21
  0 | . | . | -3 | .
NC(=O)C1CCN(C(=O)c2ccc(CS(=O)(=O)c3c(Cl)cccc3Cl)o2)CC1
  7 | . | . | 2 | .
COC(=O)C1(C(F)(F)F)N=C(N(C)C)OC(N(C)C)=N1
  3 | . | . | -4 | .
CCOc1ccc(NC2c3ccccc3C(=O)N2c2ccc(Cl)cn2)cc1 (stereo unspecified)
  -4 | . | . | 5 | .
COc1ccc(S(=O)(=O)NCC(c2cccnc2)N2CCN(c3ccccc3)CC2)cc1C (stereo unspecified)
  -8 | . | . | 2 | .
CC(C)c1nnc(NC(=O)CCC(=O)NCc2ccc3c(c2)OCO3)s1
  1 | i | i | -2 | i
O=C(O)CCC(=O)N1CCN(c2ccccn2)CC1
  1 | . | . | -4 | .
Cc1c(NC(=O)c2ccc(COc3ccc4ccccc4c3)o2)c(=O)n(-c2ccccc2)n1C
  1 | i | i | -1 | i
COc1ccccc1NC(=O)Cn1nnc(-c2ccccc2NC(=O)c2ccco2)n1
  5 | i | i | 6 | i
Cc1ccc(S(=O)(=O)N(CCO)c2cc3c(s2)CCCC3)cc1
  -10 | i | i | 3 | i
O=C1OCCC1Sc1ncnc2sccc12 (stereo unspecified)
  -1 | i | i | 0 | i
CN(CC(=O)N1CCCCC1)S(=O)(=O)c1cccc2cccnc12
  -1 | i | i | -2 | i
Cc1cccc(-n2c(N)cc(=O)nc2SCC(=O)Nc2ccccc2)c1
  4 | . | . | 0 | .
Fc1cccc2sc(Nc3nnc(-c4ccco4)o3)nc12
  -2 | i | i | -4 | i
Cc1ccc(C)c(N2CCN(C(=O)CCNC(=O)Cn3ccc4ccccc4c3=O)CC2)c1
  9 | . | . | 0 | .
CCC(C)NC(=O)C1CCN(S(=O)(=O)c2cccnc2)CC1 (stereo unspecified)
  -3 | . | . | -1 | .
Cc1ccc(Cn2ccc(NC(=O)c3noc4c3CCCC4)n2)cc1
  -3 | i | i | 0 | i
COc1cccc(C2C(C(N)=O)=C(C)Nc3nc(-c4cccc(Cl)c4)nn32)c1 (stereo unspecified)
  4 | . | . | 5 | .
CC1COC(c2cccn2Cc2ccccc2Cl)=N1 (stereo unspecified)
  11 | . | . | -3 | .
Cc1ccc2c(c1)N(CCC(=O)NCc1ccccn1)C(=O)CO2
  6 | . | . | 2 | .
CCOC(=O)N1CCC(NC(=O)c2cc(-c3ccc(F)cc3)[nH]c2C)CC1
  3 | . | . | -3 | .
COc1ccccc1S(=O)(=O)Cc1ccc(C(=O)NC2CCCCC2)o1
  -1 | . | . | 0 | .
COc1ccccc1C(=O)Nc1ccccc1C(=O)N1CCCC1
  -1 | i | i | 3 | i
COC(=O)c1ccccc1NC(=O)C1CC(c2ccc(F)cc2)=NO1 (stereo unspecified)
  -2 | . | . | -7 | .
CCCC(=O)Nc1ncnc2c1ncn2[C@@H]1O[C@@H]2COP(=O)(O)O[C@H]2[C@H]1OC(=O)CCC
  6 | i | i | 4 | i
O=C(COc1ccccc1)NCC(c1cccs1)N1CCOCC1 (stereo unspecified)
  10 | i | i | -6 | i
COc1ccc(N2C(=O)C3CCCN3C2c2ccc(C)cc2)cc1 (stereo unspecified)
  4 | . | . | 2 | .
O=C(CCCCCn1c(=O)[nH]c2ccsc2c1=O)NCc1cccs1
  7 | . | . | 11 | .
O=C(Cn1cc2c(n1)CCCC2)Nc1ccccc1Cl
  1 | . | . | 0 | .
CCSc1nnc(NC(=O)c2cc(C)oc2C)s1
  14 | i | i | 23 | i
CCCCOc1ccc(C(=O)OC(C)CN(C)C)cc1 (stereo unspecified)
  -5 | . | . | -4 | .
COc1ccc(CN(C(=O)CN2C(=O)COc3ccccc32)C2CCCC2)c(OC)c1
  1 | i | i | 3 | i
Cc1ccc(NC(=O)Cn2nnc(C(=O)Nc3ccc(C)c(C)c3)c2N)cc1
  2 | . | . | -1 | .
Cc1ccc(S(=O)(=O)NC(C)C(=O)Nc2ccc(C(N)=O)cc2)cc1 (stereo unspecified)
  4 | i | i | -2 | i
O=c1oc2ccccc2c2c1ncn2-c1ccccc1
  2 | i | i | 0 | i
CCOC(=O)Cc1cc(=O)n2[nH]c(C)c(-c3ccc(OC)cc3)c2n1
  1 | i | i | 44* | i
COc1ccc(CNC(=O)CCCCCn2c(SCC#N)nc3cc4c(cc3c2=O)OCO4)cc1
  5 | . | . | 5 | .
CC(C)N(CCNC(=O)C1CCN(S(=O)(=O)N2CCOCC2)CC1)Cc1ccccc1
  -2 | . | . | 0 | .
Cc1nc(C)c(C(=O)Nc2cccc(Cl)c2)o1
  0 | . | . | 5 | .
O=C1c2ccccc2-c2nc3ncnn3c(-c3ccccc3)c21
  2 | i | i | -2 | i
COc1ccc(C2N(C(=O)CN3CCOCC3)CCN2S(=O)(=O)c2ccccc2)cc1 (stereo unspecified)
  0 | . | . | 5 | .
Cc1cc(N2CCN(c3cccc(C(F)(F)F)c3)CC2)n2ncnc2n1
  -2 | . | . | 1 | .
CCN(C(=O)c1cn(C)c(=O)c2cc(OC)c(OC)cc12)c1cc(C)ccc1C
  -7 | . | . | -2 | .
CN(CCC#N)C(=O)Cn1nc(Cc2ccncc2)c2ccccc2c1=O
  -1 | . | . | -6 | .
O=C(NCCN1CCCCCC1)C1CCC(CNS(=O)(=O)c2cccc3cccnc23)CC1 (stereo unspecified)
  -5 | . | . | -9 | .
COc1ccc(OC)c(NC(=O)c2cnc3ccccn3c2=O)c1
  6 | . | . | 4 | .
Cc1cccc(NC(=O)CS(=O)(=O)c2cn(C)c3ccccc23)c1C
  7 | . | . | 7 | .

The list goes on:
Every second line gives: FPRL1 ligand | VCAM-1 imaging | VCAM-1 inhibition | FPR binder | VCAM-1 augmentation
COc1ccccc1-n1c(=O)[nH]c2c(C(N)=O)nc(CC(C)C)nc21
  -7 | i | i | 0 | i
O=S(=O)(c1ccc(C2=CSC3=NCCN23)cc1)N1CCOCC1
  -10 | . | . | 1 | .
O=C(NCc1ccc2c(c1)OCO2)C1CCN(S(=O)(=O)c2cccc3nsnc23)CC1
  0 | . | . | 0 | .
CC1Cc2ccccc2N1CC(=O)NC(=O)NCc1ccco1 (stereo unspecified)
  5 | i | i | 7 | i
CCOc1ccc(OCCCCN(C)C)cc1
  -2 | i | i | 0 | i
Cc1c2c(n3c(nc4ccccc43)c1C#N)N(Cc1cccnc1)CC2
  5 | . | . | 0 | .
CCn1c(SCC(=O)Nc2nc3ccccc3s2)nc2c(c1=O)SC(C)C2 (stereo unspecified)
  -2 | . | . | 5 | .
CCCS(=O)(=O)N1CCCC(C(=O)NCCCN2CCN(c3ccccc3F)CC2)C1 (stereo unspecified)
  -3 | . | . | -7 | .
Cc1c(NC(=O)c2ccc3c(c2)OCO3)cccc1-c1nc2ncccc2o1
  -2 | . | . | -4 | .
COc1ccc(-n2ncc3c(N4CCC(C)CC4)ncnc32)cc1
  -5 | i | i | 0 | i
C=CCn1c(C)cc(C(=O)CSc2nc3ccccc3c(=O)[nH]2)c1C
  -4 | i | i | -2 | i
Cc1cc(C(=O)O)sc1C
  9 | . | . | -3 | .
COc1ccc(NC(=O)CN2CCN(CC(=O)Nc3ccccc3F)CC2)cc1OC
  6 | . | . | -2 | .
Cn1c(=O)[nH]c(=O)c2c1nc(N1CCOCC1)n2CC(O)COc1ccc2ccccc2c1 (stereo unspecified)
  -4 | i | i | 0 | i
O=C(NC1CCCC1)C1CC(=O)N(CCc2ccccc2)C1 (stereo unspecified)
  -2 | . | . | -1 | .
COC(=O)c1ccccc1S(=O)(=O)N(CCCN1CCOCC1)Cc1cccs1
  -3 | i | i | -4 | i
Cc1cc(C)cc(OCCCC(=O)O)c1
  -4 | i | i | -11 | i
CCOC(=O)N1CCN(C(=O)CSc2ncccn2)CC1
  5 | . | . | 0 | .
CC(C)c1[nH]nc2c1C(c1ccc(OC(=O)c3ccco3)cc1)C(C#N)=C(N)O2 (stereo unspecified)
  -8 | . | . | -1 | .
Cn1cnc2c1c(=O)n(Cc1cccc(Br)c1)c(=O)n2C
  0 | i | i | 8 | i
O=S(=O)(Nc1cccc(C(F)(F)F)c1)c1cccnc1
  3 | . | . | -6 | .
O=C(OCc1ccccc1F)c1ccc2c(c1)OCCO2
  -2 | i | i | 4 | i
O=C1CCn2nc(-c3ccc(Cl)cc3)cc2N1
  -1 | 12µM* | i | -8 | i
Clc1ccc(Nc2nc(NCCN3CCOCC3)nc(N3CCOCC3)n2)cc1
  -6 | . | . | -10 | .
Cn1c(C(=O)N2CCN(Cc3ccccc3)CC2)cc2c(=O)n(C)c3ccccc3c21
  -2 | . | . | 5 | .
Cc1cc(NCc2ccccc2Cl)n2nnnc2n1
  0 | . | . | -6 | .
Nc1nc(-c2ccc(Br)s2)c(Br)s1
  -4 | i | i | -1 | i
Cc1cccc(NC(=O)CN(C)S(=O)(=O)c2ccccc2)n1
  0 | i | i | -2 | i
c1ccc(-c2noc(CSc3nnnn3C3CCCCC3)n2)cc1
  4 | . | . | 3 | .
COc1ccc(S(=O)(=O)N2CCCCC2C(=O)O)cc1OC (stereo unspecified)
  3 | . | . | 4 | .

Grouped by structure: the compounds so far containing a Cl atom.
Every second line gives: FPRL1 ligand | VCAM-1 imaging | VCAM-1 inhibition | FPR binder | VCAM-1 augmentation
CCn1c(=O)cc(OCC(=O)NCCCN2CCN(c3cccc(Cl)c3)CC2)c2ccccc21
  0 | . | . | -3 | .
NC(=O)C1CCN(C(=O)c2ccc(CS(=O)(=O)c3c(Cl)cccc3Cl)o2)CC1
  7 | . | . | 2 | .
CCOc1ccc(NC2c3ccccc3C(=O)N2c2ccc(Cl)cn2)cc1 (stereo unspecified)
  -4 | . | . | 5 | .
COc1cccc(C2C(C(N)=O)=C(C)Nc3nc(-c4cccc(Cl)c4)nn32)c1 (stereo unspecified)
  4 | . | . | 5 | .
CC1COC(c2cccn2Cc2ccccc2Cl)=N1 (stereo unspecified)
  11 | . | . | -3 | .
O=C(Cn1cc2c(n1)CCCC2)Nc1ccccc1Cl
  1 | . | . | 0 | .
Cc1nc(C)c(C(=O)Nc2cccc(Cl)c2)o1
  0 | . | . | 5 | .
O=C1CCn2nc(-c3ccc(Cl)cc3)cc2N1
  -1 | 12µM* | i | -8 | i
Clc1ccc(Nc2nc(NCCN3CCOCC3)nc(N3CCOCC3)n2)cc1
  -6 | . | . | -10 | .
Cc1cc(NCc2ccccc2Cl)n2nnnc2n1
  0 | . | . | -6 | .

(next part)
Every second line gives: FPRL1 ligand | VCAM-1 imaging | VCAM-1 inhibition | FPR binder | VCAM-1 augmentation
O=C(O)CC(c1ccccc1)n1cnnn1 (stereo unspecified)
  0 | . | . | -5 | .
O=C(CCSc1nc(-c2ccco2)cc(C(F)(F)F)n1)NCCc1ccccc1
  -3 | i | i | -4 | i
CC(=O)N1CCc2cc(S(=O)(=O)NC(C(=O)Nc3nc(C)cs3)C(C)C)ccc21 (stereo unspecified)
  -1 | . | . | -9 | .
COc1ccc(CNC(=O)CN(C(=O)c2ccc(CN3CCOCC3)o2)C2CCCC2)cc1
  2 | i | i | -4 | i
Cc1ccc(Cn2c(=O)c3ccccc3n3c(CCC(=O)O)nnc23)cc1
  -5 | i | i | 4 | i

Some of the compounds tested; rates above refer to the full screens.
